# GRIN3A LBD mod – modulators (binders) of human NR3A ligand-binding domain | NR3A LBD differential scanning fluorimetry, Tm shift; 0% = protein alone, 100% = glycine-bound protein | actives 2.5% (n = 340,000) | AID 1259313 | Tm shift relative to glycine control, % at 25 µM;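 active = melting temperature shift of at least 10% of the positive control shift, at one fixed dose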
# SENP1 FRET inh – blocks the human SENP1 SUMO protease catalytic domain. Q9P0U3. recombinant SENP1 catalytic domain, CyPet-SUMO1-YPet FRET cleavage. inhibition, % at 10 µM. actives 0.21% (n = 360,000). AID 624204;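 active = inhibition at least 30% at 10 µM, raw YFP signal under a set limit, fluorescence ratio 0.5 to 1.5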;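 note: 0% = enzyme with DMSO and 100% = no enzyme wells; some results filed as inactive read as strong as hits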
# Target sequence (Q9P0U3 419-644 limits assumed): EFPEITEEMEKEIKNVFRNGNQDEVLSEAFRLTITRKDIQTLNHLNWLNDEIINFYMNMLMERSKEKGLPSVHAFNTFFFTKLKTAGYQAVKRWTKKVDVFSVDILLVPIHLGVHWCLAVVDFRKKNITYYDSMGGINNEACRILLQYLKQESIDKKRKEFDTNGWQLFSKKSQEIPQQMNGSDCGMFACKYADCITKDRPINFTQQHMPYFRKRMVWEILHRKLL
#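 system = hSENP1 catalytic domain, recombinant | reagent = SFCypet-SUMO1-SFYpet substrate at 25 nM | doses = one dose per compound, 10 µM, 0.5% DMSO | incubation = enzyme reaction for 50 min at room temperature, dark | measured by = FRET, CFP and YFP emission | controls = no-enzyme low, enzyme-DMSO high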
# MPTP block – permeability transition pore inhibition | isolated mouse mitochondria, Ca2+ swelling absorbance, 30 min | inhibition, % at 10 µM | actives 1.4% (n = 360,000);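 active = inhibition of 50% or more, scaled per plate between neutral and stimulator controls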;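 note: 0% = DMSO wells given calcium and 100% = 1 mM EGTA wells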
# hIAP act – human IAP activation; purified human IAP, CDP-Star luminescence, 30 min; hits give high values; 1 = vehicle-only enzyme, 0 = enzyme-free background; P09923; actives 0.16% (n = 330,000); activation factor at 10 µM;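 active = activation factor of the enzyme at least 2-fold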; note: the source names both 10 and 20 µM as test concentration; values of inactives mirror those of a sister screen read the other way
# Target sequence (P09923 whole entry, looked up): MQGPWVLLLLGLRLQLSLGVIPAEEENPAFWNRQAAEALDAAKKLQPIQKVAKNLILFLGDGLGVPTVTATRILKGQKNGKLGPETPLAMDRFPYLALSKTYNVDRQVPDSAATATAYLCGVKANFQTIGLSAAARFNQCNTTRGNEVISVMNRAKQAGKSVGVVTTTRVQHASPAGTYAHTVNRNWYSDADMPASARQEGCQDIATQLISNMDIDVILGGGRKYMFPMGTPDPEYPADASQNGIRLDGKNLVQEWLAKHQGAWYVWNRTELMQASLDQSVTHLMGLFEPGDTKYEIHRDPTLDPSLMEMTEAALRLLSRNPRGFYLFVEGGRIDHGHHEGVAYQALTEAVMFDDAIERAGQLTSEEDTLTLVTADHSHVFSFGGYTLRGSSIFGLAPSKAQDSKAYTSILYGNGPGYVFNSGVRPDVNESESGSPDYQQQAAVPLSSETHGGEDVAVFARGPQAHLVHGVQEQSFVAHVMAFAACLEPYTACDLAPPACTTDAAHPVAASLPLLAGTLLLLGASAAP
# ATG4B inhibitor – ATG4B (human) cysteine protease inhibition | inhibition, % at 8.33 µM | actives 0.51% (n = 340,000) | ATG4B cleavage of LC3-PLA2, NBD-HPC fluorescence, 1 h | Q9Y4P1; in the data active = inhibition above about 40%
# PfGluPho inh – PfG6PD (Plasmodium falciparum) enzyme inhibition; PfGluPho enzyme, NADPH resazurin-diaphorase fluorescence; inhibition, % at 20 µM; actives 0.78% (n = 350,000);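 active = inhibition reaching at least a set limit at 20 µM in the primary screen, cut at about 59% in these data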;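 note: 0% = DMSO wells with substrate and 100% = DMSO wells lacking glucose-6-phosphate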
# The depositor's hits bear a star; . = no result given. Only part of the results is shown; count on the stated rates, not on these rows.
compound,GRIN3A LBD mod,SENP1 FRET inh,MPTP block,hIAP act,ATG4B inhibitor,PfGluPho inh
O=C(Nc1ccc2nccnc2c1)Nc1ccccc1Cl,-11,-7,-1.6,0.99,-5,24
c1ccc(CSc2ncnc3c2cnn3-c2ccccc2)cc1,0,3,0.6,0.84,-5,0
Cc1cccc(NC(=O)c2cc3ccccc3c(=O)o2)n1,0,1,0.8,0.84,-6,-3
O=S(=O)(Nc1cccc(-c2ccc(N3CCOCC3)nn2)c1)c1cc(Cl)ccc1Cl,.,0,-2.1,0.96,-6,-44
N/C(=N\N=C\c1cccc([N+](=O)[O-])c1)c1nonc1N,0,3,1.9,0.96,-3,1
O=C(Nc1ccccc1)N1CCc2ccccc21,-24,-2,-0.3,0.91,0,12
Cc1cc(C(=O)COC(=O)c2cccc(O)c2)c(C)n1C1CC1,0,1,0.3,0.92,-10,7
Cc1ccc(NC(=O)c2cnc(SCC(=O)NCC3CCCO3)n(C)c2=O)cc1C (configuration not stated),-1,-1,0.4,1.1,1,-9
O=C(CNc1ccccc1OC(F)F)N1CCc2ccccc21,0,-2,-3.5,1.1,-3,12
O=[N+]([O-])c1ccccc1N/N=C\c1ccccc1F,1,4,1.3,1.2,2,2
CCCN1C(=O)c2ccc(C(=O)Nc3ccc4c(c3)OCO4)cc2C1=O,1,0,0.9,0.85,4,-2
COc1cc(OC)cc(C(=O)Nc2ccc(NC(=O)c3ccco3)c(Cl)c2)c1,-1,4,0.6,0.99,8,-1
O=C(OCc1ccc(F)cc1Cl)c1ccccn1,-1,0,-1.5,0.86,10,5
COc1ccc(-c2nc(-c3ccncc3)no2)c(OC)c1,0,0,-0.1,1.2,-1,-7
COc1cccc(COC(=O)Nc2ccccc2F)c1,3,-1,0.1,0.99,4,12

# Rewritten with values under each structure: entries from further up.
# The line under a structure holds: GRIN3A LBD mod | SENP1 FRET inh | MPTP block | hIAP act | ATG4B inhibitor | PfGluPho inh
CCCN1C(=O)c2ccc(C(=O)Nc3ccc4c(c3)OCO4)cc2C1=O
 : 1 | 0 | 0.9 | 0.85 | 4 | -2
COc1cc(OC)cc(C(=O)Nc2ccc(NC(=O)c3ccco3)c(Cl)c2)c1
 : -1 | 4 | 0.6 | 0.99 | 8 | -1

# Ordered by value in ATG4B inhibitor (lowest first): 5 from the list above.
structure | GRIN3A LBD mod | SENP1 FRET inh | MPTP block | hIAP act | ATG4B inhibitor | PfGluPho inh
O=S(=O)(Nc1cccc(-c2ccc(N3CCOCC3)nn2)c1)c1cc(Cl)ccc1Cl | . | 0 | -2.1 | 0.96 | -6 | -44
O=C(Nc1ccc2nccnc2c1)Nc1ccccc1Cl | -11 | -7 | -1.6 | 0.99 | -5 | 24
O=[N+]([O-])c1ccccc1N/N=C\c1ccccc1F | 1 | 4 | 1.3 | 1.2 | 2 | 2
COc1cccc(COC(=O)Nc2ccccc2F)c1 | 3 | -1 | 0.1 | 0.99 | 4 | 12
COc1cc(OC)cc(C(=O)Nc2ccc(NC(=O)c3ccco3)c(Cl)c2)c1 | -1 | 4 | 0.6 | 0.99 | 8 | -1

# (continued)
compound,GRIN3A LBD mod,SENP1 FRET inh,MPTP block,hIAP act,ATG4B inhibitor,PfGluPho inh
CCCCc1ccc(Nc2ncccc2C#N)cc1,2,0,2.3,1,15,8
COC(=O)c1sc(NC(=S)NC(=O)c2ccccc2F)nc1C,2,-9,1.1,1.1,-3,14
COc1ccc(NC(=O)NC(=O)c2ccccc2)cc1,0,2,1.4,1,-2,-4
COc1ccc(C(=O)Nc2ccc(C(=O)N3CCCCC3)cc2)cc1OC,-1,2,0.3,0.94,1,9
O=C(/C=C/c1cccs1)Nc1ccc(Br)cn1,-11,-1,-1.3,0.85,6,5
O=C(Nc1nc2ccccc2s1)c1ccccc1,-4,-1,0.3,1,-4,25
COc1ccc(-c2cc(C(=O)OCC(=O)N3CCCCC3)c3ccccc3n2)cc1OC,-3,-14,0.0,0.98,21,15
COc1ccc(NC(=O)COC(=O)C23CC4CC(CC(O)(C4)C2)C3)cc1Cl,-19,1,-2.2,1.2,-7,1
NC(=O)C(c1ccc(Cl)cc1)c1ccc(Sc2ccccc2)nn1 (configuration not stated),-5,3,-0.1,0.94,-17,-14
CC(=O)c1ccccc1NC(=O)COC(=O)c1c(C)nn(-c2ccccc2)c1C,-1,3,-0.5,1.1,-1,-2
O=C(Nc1ccc([N+](=O)[O-])cc1)c1cccc(S(=O)(=O)Nc2cccnc2)c1,-2,2,-1.7,1.1,-2,-9
CC(C)COc1ccc(C(=O)Nc2ccccc2[N+](=O)[O-])cc1,0,4,54*,0.87,34,9
NS(=O)(=O)c1ccc(NC2=CC(=O)C(=O)c3ccccc32)cc1,-1,2,0.5,0.9,6,42
COC(=O)c1sccc1NC(=O)COc1ccc(F)cc1Cl,2,4,-1.1,0.84,-4,-8
CCOc1ccc(OCc2ccc(C(=O)OCc3ccccn3)o2)cc1,1,1,-1.3,0.9,-11,19

# Some of these compounds in order of molecular weight, largest number first.
compound,GRIN3A LBD mod,SENP1 FRET inh,MPTP block,hIAP act,ATG4B inhibitor,PfGluPho inh
COc1ccc(C(=O)Nc2ccc(C(=O)N3CCCCC3)cc2)cc1OC,-1,2,0.3,0.94,1,9
COC(=O)c1sc(NC(=S)NC(=O)c2ccccc2F)nc1C,2,-9,1.1,1.1,-3,14
NS(=O)(=O)c1ccc(NC2=CC(=O)C(=O)c3ccccc32)cc1,-1,2,0.5,0.9,6,42

# Profiles as entered above. Order of screens: GRIN3A LBD mod, SENP1 FRET inh, MPTP block, hIAP act, ATG4B inhibitor, PfGluPho inh
# NC(=O)C(c1ccc(Cl)cc1)c1ccc(Sc2ccccc2)nn1 (configuration not stated) in the list: -5, 3, -0.1, 0.94, -17, -14
# O=C(Nc1ccc([N+](=O)[O-])cc1)c1cccc(S(=O)(=O)Nc2cccnc2)c1 in the list: -2, 2, -1.7, 1.1, -2, -9
# CC(C)COc1ccc(C(=O)Nc2ccccc2[N+](=O)[O-])cc1 in the list: 0, 4, 54*, 0.87, 34, 9
# COC(=O)c1sccc1NC(=O)COc1ccc(F)cc1Cl in the list: 2, 4, -1.1, 0.84, -4, -8

# Carrying on:
compound,GRIN3A LBD mod,SENP1 FRET inh,MPTP block,hIAP act,ATG4B inhibitor,PfGluPho inh
CCCOc1ccc(-c2cc3onc(-c4ccccc4)c3c(=O)n2C)cc1,7,2,2.9,0.96,-2,15
COc1cc(/C=N/NC(=O)c2sc3ccccc3c2Cl)ccc1OC(=O)c1ccc([N+](=O)[O-])cc1,3,1,0.9,0.92,-3,8
O=C(NC(=S)Nc1ccccn1)c1ccc(-c2ccccc2)cc1,-8,-2,0.8,1.1,1,-2
O=C(Oc1ccc2ccccc2c1Br)N1CCCCCC1,0,-2,3.8,0.88,12,-17
COc1ccc(-c2nc(-c3cccc(C)c3)no2)cc1OC,-2,-1,-1.1,0.81,-6,3
O=C(COC(=O)c1ccc(O)cc1O)c1ccc2c(c1)OCO2,-2,0,-0.8,0.92,10,-8
Cc1ccc(NC(=O)c2ccc(N/N=C/c3cccc(O)c3)c([N+](=O)[O-])c2)cc1,256*,8,6.6,0.91,-7,3
O=C(Nc1ccccn1)c1ccc(-c2ccccc2)cc1,36*,-2,7.7,0.76,8,21
O=[N+]([O-])c1cccc(-c2nc(-c3ccccc3)no2)c1,-2,2,1.5,0.86,-5,-4
Cc1nn(C(C)(C)C)c(C)c1/C=N/OC(=O)Nc1ccc(Cl)c(Cl)c1,9,1,73*,0.9,-12,5
CC(C)(C)c1csc(NC(=O)C2=COCCO2)n1,-1,0,-0.6,1.2,3,-12
CCOC(=O)c1ccc(NC(=O)c2ccc3c(c2)OCO3)cc1,0,2,1.0,1,-9,11
Cc1cc(-c2cccc([N+](=O)[O-])c2)nc2ccc3ccccc3c12,27*,-7,3.2,0.94,5,-12
COc1ccc(NC(=O)c2ccc(C)o2)c([N+](=O)[O-])c1,-1,3,-0.4,0.93,2,-4
Brc1ccsc1-c1csc(-c2ccncc2)n1,-1,12,-0.1,1,-2,8

# Next structures follow.
compound,GRIN3A LBD mod,SENP1 FRET inh,MPTP block,hIAP act,ATG4B inhibitor,PfGluPho inh
COc1ccc(-c2csc(-c3cccs3)n2)c(OC)c1,-6,-2,0.9,0.85,-7,21
Cc1cc(C(=O)COC(=O)c2cccnc2Cl)c(C)n1C,2,1,-2.5,0.77,-5,10
CCN1C(=O)c2ccc(C(=O)Nc3ccc4c(c3)OCO4)cc2C1=O,1,1,1.3,1.2,2,3
CC(C)c1ccc(Nc2ncccc2C#N)cc1,-10,1,1.3,1,8,12
CCOc1ccc2nc(C(=O)N3CCCC(C)C3)sc2c1 (configuration not stated),3,0,0.4,1,25,25
Cc1cc(C)c2c(c1)cc(C)c1nnc(SCC(=O)Nc3cc(C)on3)n12,2,-1,0.5,0.95,-7,7

# Compound activity deposited in PubChem by Sanford-Burnham Center for Chemical Genomics.
